Screening results from PubChem BioAssay.
TRPML1 inh: human mucolipin-1 channel inhibition; 390,000 compounds, 0.02% hits; activity change, negative = inhibition, % (concentration not given with the values); AID 624415; TRPML1-inducible cells, Ca2+ dye fluorescence, FDSS; hits give low values; inhibition of EC80 agonist-evoked calcium signal; in the data active means activity change below about -50%; inconclusive means about -30% to -50%; inactive means above about -30%;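 note: stimulus is agonist 54-4 at its EC80 concentration; % is set by controls: 0 for no effect and ±100 for the full control effect; the text of the record puts the active cut at -80%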
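TRPML1-DL cells, Tet-induced overnight (~16 h, 37 °C) at 1,500 cells/well, were loaded with Ca8 no-wash dye plus quencher for 45-90 min at room temperature. Compounds were pinned during FDSS kinetic reading; agonist 54-4 at EC80 (4 uM final) then added.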
PINK1 expr mod: changes PINK1 expression. 410,000 compounds, 0.2% hits. Potency, µM (highest dose often 76.6 µM), without a hit: top-dose activation (PINK1 increase), usual class: activators. PINK1 immunofluorescence, high-content cytometry, 24 h; active = well fitted activation curve with a large enough effect; inconclusive = small, poorly fitted or top-dose-only effect; inactive = flat fitted curve, though single readings scatter; cell line not stated here;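 note: potency is the fitted concentration of half-maximal effect; % of control where 0% means no effect; nearly all actives have a fitted effect of over 65% in size; a mitochondrial uncoupler was the plate control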
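PINK1 protein, normally rapidly degraded, was detected by immunofluorescence after 24 hour compound treatment of a stable cell line. Titration data (5 concentrations) came from laser-scanning cytometry, with CCCP-treated wells as controls.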
Six1-Eya2 inh: blocks human Six1 binding to Eya2 | Q15475+O00167 | AlphaScreen GST-Six1/His-Eya2 binding, biochemical; hits give low values; control for the full effect not named in the record | activity change, % (concentration not given with the values) | 360,000 compounds, 0.56% hits | AID 651725; in the data active = activity change below about -65%; inconclusive = about -30% to -65%; inactive = above about -30%; note: % is set by controls: 0 for no effect and ±100 for the full control effect
Target sequence (O00167 whole entry, looked up): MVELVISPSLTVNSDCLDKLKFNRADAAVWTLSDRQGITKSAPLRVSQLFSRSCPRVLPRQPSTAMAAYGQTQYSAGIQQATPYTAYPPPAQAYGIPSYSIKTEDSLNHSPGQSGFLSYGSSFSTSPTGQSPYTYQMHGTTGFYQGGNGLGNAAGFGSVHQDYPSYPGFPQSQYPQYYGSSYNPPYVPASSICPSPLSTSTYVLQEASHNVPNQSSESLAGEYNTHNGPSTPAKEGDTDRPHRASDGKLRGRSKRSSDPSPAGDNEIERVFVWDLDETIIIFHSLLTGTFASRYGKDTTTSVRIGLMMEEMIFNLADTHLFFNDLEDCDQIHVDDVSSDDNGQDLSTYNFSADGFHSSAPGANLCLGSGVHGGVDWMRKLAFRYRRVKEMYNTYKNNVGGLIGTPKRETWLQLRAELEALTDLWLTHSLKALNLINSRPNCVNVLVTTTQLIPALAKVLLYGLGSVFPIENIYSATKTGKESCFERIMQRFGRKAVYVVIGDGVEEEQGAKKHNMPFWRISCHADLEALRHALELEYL
Target sequence (Q15475 whole entry, looked up): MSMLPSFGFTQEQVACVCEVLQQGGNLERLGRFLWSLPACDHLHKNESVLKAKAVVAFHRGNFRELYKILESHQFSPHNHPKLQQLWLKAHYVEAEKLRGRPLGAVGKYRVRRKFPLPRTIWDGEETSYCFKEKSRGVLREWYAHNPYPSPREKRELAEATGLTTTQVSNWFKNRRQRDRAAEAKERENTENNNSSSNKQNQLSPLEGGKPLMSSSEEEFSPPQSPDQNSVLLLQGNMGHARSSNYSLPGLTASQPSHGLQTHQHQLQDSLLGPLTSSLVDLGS
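GST-Six1 + His-Eya2 (5X stock: 250/500 nM); Tris pH 8.0, 300 mM NaCl, 0.05% BSA, 0.02% Tween 20; GSH donor/Ni acceptor beads; 1 h 37 °C dark; AlphaScreen readout.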
TRPML1 agonist: human mucolipin-1 channel agonism. Q9GZU1. TRPML1-expressing cells, Ca2+ dye fluorescence, FDSS; host cell line not named in the record; reference of the full effect not given here. activation, % (no concentration beside the values). 410,000 compounds, 0.12% hits; in the data active = activation above about 50%; inconclusive = about 30% to 50%; inactive = below about 30%; note: 0% is about no effect; the text of the record puts the active cut at 80%
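Calcium fluorescence on an FDSS kinetic reader gave the read-out. Tet-induced TRPML1-DL cells were plated overnight, dye-loaded (Ca8 with quencher, 45-90 min, room temperature, dark), then read 110 s after compound addition, and again 110 s after 4uM final 54-4 (EC80).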
D2 potentiator: human D2 receptor positive allosteric modulation; P14416; DiscoveRx D2 beta-arrestin cells, luminescence, 90 min; 100% = 57 uM dopamine signal; AID 624464; 360,000 compounds, 0.23% hits; potentiation, % (concentration not given with the values); active = potentiation of 50% or more; inconclusive = 30% to 50%; inactive = 30% or less;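 note: tested on top of an EC20 dose of dopamine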
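PathHunter D2 cells, attached overnight at 37 deg C, received compound in DMSO plus dopamine at EC20 (50 nM final) for 90 min at 37 deg C. Beta-arrestin recruitment was read as luminescence after 1 h with detection reagent at ambient temperature.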
D2 agonist: human D2 receptor agonism in beta-arrestin assay; P14416; DiscoveRx PathHunter D2 beta-arrestin, luminescence, 90 min; 100% = 57 uM dopamine signal; activation, % (test concentration not listed); 360,000 compounds, 0.084% hits; AID 624465; in the data active = activation above about 40%; inconclusive = about 15% to 40%; inactive = below about 15%; note: compound concentration not given in the record; the text of the record calls up to 30% inactive
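Agonist mode: compounds alone added to overnight-plated D2 PathHunter cells for 90 min at 37 C, with 57 uM final dopamine (EC100) defining full response. Beta-arrestin recruitment detected by chemiluminescent reagent, read after 1 h at ambient temperature.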
* = called active by the depositor; ? = inconclusive; · = not tested or not shown; & = joins results of further samples; [ ] = remark or other dose.

SMILES	TRPML1 inh	PINK1 expr mod	Six1-Eya2 inh	TRPML1 agonist	D2 potentiator	D2 agonist
CCN1C(=O)[C@H]2[C@H]3CN=C(SCc4ccc(C)cc4)N3[C@@](Cc3ccccc3)(C(=O)OC)[C@H]2C1=O	54	0.7%	-2	1.0	-9	-1.1
Cc1cc(NC(=O)CSc2nc3cc4c(cc3c(=O)n2CCc2ccccc2)OCO4)no1	4	12%	0	-1.2	-15	-4.1
COc1ccc(N2CCN(S(=O)(=O)CCNC(=O)COc3ccc(Cl)cc3)CC2)cc1	25	0.4%	0	0.0	3	0.1
CC1CN(c2ccc(Oc3ccccc3)cc2)c2nc3c(c(=O)[nH]c(=O)n3C)n2C1 (stereo not given)	9	-1.2%	-17	-0.8	-5	-2.5
COC(=O)c1ccccc1NC(=S)NC(NC(=O)COc1ccccc1)C(Cl)(Cl)Cl (stereo not given)	8	18%	-9	2.8	2	-5.4
COc1ccc(OC)c(CNc2ccc3c(c2)CCC3)c1	23	?	-8	0.1	-2	-1.3
CCCn1c(SCC(=O)N(C)C2CCCCC2)n[nH]c1=O	7	-1.1%	3	-0.5	-17	-2.7
O=C(NCc1ccc2c(c1)OCO2)C1CCN(c2ncccn2)CC1	-5	24%[38.3 µM]	3	-0.9	-13	-2.8
CN(C)CCCNC(=O)c1ccccc1Oc1ccccc1	-12	-0.3%	-2	-0.1	-14	-0.1
COc1ccc(NC(=S)Nc2ccc(N)c([N+](=O)[O-])c2)cc1	-12	-1.5%	-19	-0.4	-15	-6.3
COc1ccc(C(=O)NC2CC(C)(C)NC(C)(C)C2)cc1OC	7	4.0%	1	0.2	-8	-3.2
COc1ccc(CCCc2nnc(SCC(=O)Nc3nc(C)cs3)n2C)cc1C	60	-1.4%	-2	4.8	-6	-1.8
Cc1cc(C)nc(NC=C2C(=O)OC(C)(C)OC2=O)n1	-24	-1.2%	1	1.4	5	2.2
COc1cc2c(cc1OC)C(COc1ccc(F)cc1)N(C(=O)c1ccccc1F)CC2 (stereo not given)	1	-3.7%	·	2.7	·	·
Cc1ccc([N+](=O)[O-])cc1S(=O)(=O)N1CCN(C)CC1	-5	-0.1%	11	0.1	-11	-6.0
COc1ccccc1NS(=O)(=O)c1cc(C(=O)NCC(c2ccco2)N(C)C)ccc1C (stereo not given)	32	-0.4%	0	0.9	-37	-4.4
CC(C)c1nn2c(=O)cc(COC(=O)c3ccc(NC(=O)c4cccs4)cc3)nc2s1	8	6.3%	·	2.6	·	·
O=C(CCCOc1ccc(Br)cc1)NCCc1ccc(OC(F)F)cc1	20	0.0%	11	0.9	0	1.0
c1ccc(-c2nc(N3CCCCC3)nc3ccccc23)cc1	?	3.9%	196	2.4	9	0.5
CN1CCN(C(=S)c2ccc(-c3cccc([N+](=O)[O-])c3)o2)CC1	24	-0.4%	-28	3.8	-12	-2.3
COc1ccc(C(CNC(=O)COc2c(C)cc(C)cc2C)N2CCOCC2)cc1 (stereo not given)	14	0.0%	-5	-0.6	-4	-0.9
COc1ccc(OC)c(NC(=O)CSc2ccc3nnc(-c4cccnc4)n3n2)c1	0	-0.7%	1	0.4	-6	-4.7
CCc1cc(=O)[nH]c(SCC(=O)Nc2ccc3c(c2)OCCO3)n1	1	0.3%	4	-0.4	5	-2.5
Cc1ccc(S(=O)(=O)N(C)c2ccc(C(=O)NCc3ccccn3)cc2)cc1	-1	-0.5%	7	-0.3	-7	1.9
COc1ccc2ncn(-c3ccccc3)c2c1	1	-4.4%	1	-0.6	-12	-2.8
Next structures.
SMILES	TRPML1 inh	PINK1 expr mod	Six1-Eya2 inh	TRPML1 agonist	D2 potentiator	D2 agonist
Cc1cccc(OCCc2nnc(N)s2)c1C	-23	0.8%	13	0.1	-2	-1.9
Cc1ccc(NC(=O)CN(C)C(=O)COC(=O)/C=C/c2cccs2)cc1	-13	0.4%	3	0.1	-3	-0.3
CCOC(=O)N1CCN(C2CCCN(C(=O)c3ccccc3C(F)(F)F)C2)CC1 (stereo not given)	2	1.8%	3	0.3	-6	-1.8
NC(=O)c1nnsc1-c1ccc(-c2snnc2C(N)=O)cc1	3	0.3%	4	0.1	-2	-3.0
CCCCC(=O)OC1=C(C(C)=O)N(Cc2ccccc2)S(=O)(=O)c2ccccc21	19	-1.3%	·	1.2	·	·
CCOC(=O)N/N=C/c1ccc(Oc2ccccc2)cc1	-1	3.5%	3	1.4	-2	-1.7
Cc1cccc(N2CCN(C(=O)Cn3sc4nc(C)cc(C)c4c3=O)CC2C)c1 (stereo not given)	-7	-2.7%	-1	2.2	-12	-2.6
Cc1ccc(Nc2nc(N)nc(CSc3nnc(C)s3)n2)cc1	-3	-0.4%	?	-0.6	2	-4.9
O=C(O)c1ccccc1C(=O)Nn1cnnc1	-13	-2.9%	11	0.5	-6	1.0
Cc1onc(-c2c(F)cccc2Cl)c1C(=O)Nc1sc2c(c1C#N)CCC(C(C)(C)C)C2 (stereo not given)	-8	6.6%	-1	13	-5	1.8
COc1ccc(C(=O)NCc2nnc(SCCOc3ccccc3)n2C)cc1	4	-0.4%	-15	-1.3	-19	-3.1
COc1cc(NS(=O)(=O)c2ccc(C)cc2)c2c(c1N)C(=O)c1ccccc1C2=O	5	3.9%	-23	0.5	-9	13
O=C(Nc1ccc2c(c1)CCC2)C1CCN(c2ncccn2)CC1	-4	0.7%	3	0.9	-9	-1.2
COc1cc(NC(=O)c2c(C)oc3c2C2=NCCN2C=N3)cc(OC)c1OC	7	2.8%	·	-0.4	·	·
CCCc1nc2nc(C)c(NS(=O)(=O)c3ccc(Cl)cc3)c(=O)n2[nH]1	-2	0.3%	1	0.5	-4	1.4
C/C(CC(=O)Nc1ccc(OCc2ccccc2)cc1)=N\NC(=O)C(=O)Nc1ccccc1C	42	27%	-6	0.6	29	-4.9
CCOC(=O)c1sc(C)c2c(=O)n(Cc3ccc(Cl)cc3)c(C)nc12	-3	-1.2%	7	6.6	28	-0.8
COc1ccc(CNC(=O)c2cnc3ccc(C)cn3c2=O)cc1	19	-1.9%	·	-0.9	·	·
O=C(N=C1SC2CS(=O)(=O)CC2N1c1cc(Cl)ccc1Cl)C1CC1 (stereo not given)	13	3.1%	6	4.8	-2	2.9
COc1ccc(S(N)(=O)=O)cc1C(=O)OCC(=O)N1CCCC(C)C1 (stereo not given)	18	-1.2%	2	-1.0	0	-1.1
Cc1ccc(C(=O)N(CCCN(C)C)c2nc3ccc(Cl)cc3s2)cc1C	23	7.6%	-25	1.7	-19	2.2
CC(C)(C)OC(=O)N1CCN(C(=O)Nc2ccc3c(c2)OCCO3)CC1	-10	0.2%	-1	-0.6	7	-2.7
O=C(CCS(=O)(=O)c1cc2c(cc1Cl)NC(=O)CO2)NCc1ccccc1	-5&-4	1.9%&-0.1%	-1	0.2&0.8	6	-2.8
C[C@H](CO)N1C[C@H](C)[C@@H](CN(C)S(=O)(=O)c2ccccc2)Oc2ccc(NC(=O)C3CCCCC3)cc2C1=O	48	-1.3%	-12	-1.0	-1	-0.3
Cn1c2ccccc2c(=O)c2ccc(C#CC3(N)CCCCC3)cc21	-10	-2.2%	7	-0.6	-9	-0.1
Later entries
SMILES	TRPML1 inh	PINK1 expr mod	Six1-Eya2 inh	TRPML1 agonist	D2 potentiator	D2 agonist
CC1=C(C(=O)Nc2ccccn2)C(c2ccc3c(c2)OCO3)C2=C(CC(C)(C)CC2=O)N1 (stereo not given)	22	0.2%	6	-0.1	-1	-3.7
Cc1[nH]c2c(C)cccc2c1CCNC(=O)c1ccc2c(c1[N+](=O)[O-])C(=O)c1ccccc1C2=O	-10	0.4%	-65*	5.6	93*	?
Cc1ccc(N(NC(=O)C(O)(c2ccccc2)c2ccccc2)C(=O)CCl)cc1	44	-1.8%	-5	-0.7	-9	0.7
COc1ccc(S(=O)(=O)N2CCCCCC2)cc1C(=O)N1CCN(C(C)=O)CC1	-7	0.7%	14	-0.6	4	-0.4
Cc1ccnc2nc(C(=O)NCc3cccs3)nn12	11	0.6%	-8	-0.9	-7	-3.7
CC1CCCCc2nc3c(c(=O)n21)CCCC3 (stereo not given)	·	2.9%	-2	-1.0	-4	-0.9
Clc1ccc(-c2n[nH]c3c2CCC3)cc1Cl	-2	-1.3%	6	1.0	7	2.0
Cc1cccc(C)c1NC(=O)CNC(=O)CN1C(=O)NC2(CCc3ccccc32)C1=O (stereo not given)	11	2.7%	6	-0.1	-2	12
O=C(NC(=S)/C(=C1\CCCCCN1)[N+](=O)[O-])c1ccccc1	1	1.0%	-4	0.8	-18	4.6
CCN(CC(=O)Nc1c(F)cccc1F)C(=O)C1CC(=O)N(CCc2ccc(OC)c(OC)c2)C1 (stereo not given)	11	-0.8%	6	0.7	-4	7.8
Cc1cccc(Cn2nc(C)c(NC(=O)c3ccc(F)cc3)c2C)c1	1	-1.6%	-11	1.4	-35	7.4
Cc1ccc(C)c(S(=O)(=O)NCCCn2ccnc2)c1	15	0.4%	-5	-0.4	-9	-5.8
CC(C)c1ccc(NNC(=O)C2CCC2)cc1	-1	-0.6%	6	-0.3	-14	-8.9
CC(C)(C)C1CCc2c(sc3nc(-c4cc5ccccc5oc4=O)[nH]c(=O)c23)C1 (stereo not given)	5	3.8%	·	0.4	·	·
CC(=O)c1cccc(NC(=O)CN2C(=O)c3ccccc3Sc3ncccc32)c1	2	0.9%	·	-0.2	·	·
COc1cccc(-c2nc(CCl)cs2)c1OC	-8	-2.6%	1	-0.8	-11	12
O=C(COC(=O)Cc1ccc(S(=O)(=O)N2CCOCC2)s1)Nc1ccc(OC(F)F)cc1	2	1.2%	0	2.0	-1	-6.5
Cc1sc2ncnc(OCC(=O)NC(C)C)c2c1C	26	1.7%	-5	0.8	-9	-2.9
O=C(NN1c2ccccc2CCc2ccccc21)c1ccccc1Br	-4	13%	1	1.3	-3	-3.4
NCCCCCNC(=O)c1[nH]cnc1C(=O)N[C@@H](Cc1ccccc1)C(=O)OCc1ccccc1	-16	-0.5%	-2	0.6	-24	-3.2
Cc1nc(C)c(-c2ccc(SCC(=O)Nc3ccc(Cl)c(Cl)c3)nn2)s1	0	3.7%	·	3.3	·	·

3 of these compounds, set out differently.
Order of results – TRPML1 inh, PINK1 expr mod, Six1-Eya2 inh, TRPML1 agonist, D2 potentiator, D2 agonist
> COc1ccc(N2CCN(S(=O)(=O)CCNC(=O)COc3ccc(Cl)cc3)CC2)cc1
 : 25, 0.4%, 0, 0.0, 3, 0.1
> CC1CN(c2ccc(Oc3ccccc3)cc2)c2nc3c(c(=O)[nH]c(=O)n3C)n2C1 (stereo not given)
 : 9, -1.2%, -17, -0.8, -5, -2.5
> COC(=O)c1ccccc1NC(=S)NC(NC(=O)COc1ccccc1)C(Cl)(Cl)Cl (stereo not given)
 : 8, 18%, -9, 2.8, 2, -5.4
